Cruzain inh Det = cruzain (T. cruzi) inhibition with detergent; 200,000 tested, 0.43% active; purified cruzain, Z-FR-AMC fluorescence, 0.01% Triton; Potency, µM, for the others: max response, negative = inhibition, hits mostly inhibitors; AID 1478; active = well fitted curve in the direction sought with a large enough effect; inconclusive = small, poorly fitted or top-dose-only effect, or another doubt; inactive = no such curve, though single readings can be large; an effect the other way counts as inactive or inconclusive;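 note: plate controls were neutral wells for no effect and buffer without enzyme for full effect; nearly all actives have a fitted effect of over 40% in size; top concentration of the series not given in the record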
Target sequence (P25779 123-467 limits assumed): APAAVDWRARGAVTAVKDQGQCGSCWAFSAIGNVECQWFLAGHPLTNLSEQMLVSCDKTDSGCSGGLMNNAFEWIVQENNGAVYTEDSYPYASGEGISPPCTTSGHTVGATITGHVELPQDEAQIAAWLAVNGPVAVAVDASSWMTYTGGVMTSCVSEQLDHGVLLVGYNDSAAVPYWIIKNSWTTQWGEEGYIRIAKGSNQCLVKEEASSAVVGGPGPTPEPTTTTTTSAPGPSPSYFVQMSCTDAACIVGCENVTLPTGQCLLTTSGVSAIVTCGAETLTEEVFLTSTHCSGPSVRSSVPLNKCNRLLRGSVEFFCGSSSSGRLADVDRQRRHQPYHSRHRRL
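Cysteine protease activity tested under reducing, mildly acidic conditions (100 mM sodium acetate pH 5.5, 5 mM DTT) plus 0.01% Triton X-100. Cruzain 1.5 nM; substrate Z-FR-AMC 2 uM; 15 min compound preincubation at room temperature.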
NS1 inh = inhibitors of influenza NS1 protein function; Potency, µM (series often up to 46.1 µM), inactives show at the highest dose activity, positive = more growth; S. cerevisiae slowed by influenza A NS1, growth recovery by OD600; 270,000 tested, 0.4% active; note: actives are rising curves; nearly all actives have a fitted effect of over 50% in size
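Growth recovery, yeast-based: influenza A NS1 expressed in S. cerevisiae causes slow growth, and suppressors are detected by OD600. The parent strain without NS1 is used as positive control.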
SARS PLpro yeast = SARS-CoV PLP inhibition in yeast; S. cerevisiae expressing SARS-CoV PLpro, growth rescue; control for the full effect not named in the record; Potency, µM (doses to about 32.9 µM), for inactives: top-dose activity, positive = growth rescue; 330,000 tested, 0.19% active; note: 0% is about no effect; nearly all actives have a fitted effect of over 55% in size; growth read by luminescence after 48 h
Lassa entry inh = blocks Lassa virus binding to or entry into cells; Lassa virus pseudotype entry inhibition, cell reporter; control for the full effect not named in the record; Potency, µM (doses to about 37.9 µM), without a hit: at the top dose activity change, negative = inhibition, usual class: inhibitors; 300,000 tested, 1.2% active; AID 540256; active means well fitted inhibition curve with a large enough effect; inconclusive means small, poorly fitted or top-dose-only effect, or effect the other way; inactive means flat fitted curve, though single readings scatter; tested in HEK293 cells; note: % is set by controls: 0 for no effect and ±100 for the full control effect; nearly all actives have a fitted effect of over 50% in size; luciferase read-out
Marburg entry inh = inhibitors of Marburg virus binding or cell entry. Marburg virus pseudotyped entry inhibition, cell reporter; control for the full effect not named in the record; about a third of the inactives were read at about 46 µM. Potency, µM (doses to about 37.8 µM), inactives show top-dose activity change, negative = inhibition, most hits filed as inhibitors. 300,000 tested, 1.8% active; active = well fitted inhibition curve with a large enough effect; inconclusive = small, poorly fitted or top-dose-only effect, or effect the other way; inactive = flat fitted curve, though single readings scatter; tested in HEK293 cells; about a fifth of its hits are not listed in these tables; note: % is set by controls: 0 for no effect and ±100 for the full control effect; luciferase read-out
Cruzain inh noDet = inhibitors of Trypanosoma cruzi cruzain without detergent | 200,000 tested, 2.3% active | purified cruzain, Z-FR-AMC fluorescence, no detergent | Potency, µM, for the others: max response, negative = inhibition, hits mostly inhibitors | AID 1476; active = well fitted curve in the direction sought with a large enough effect; inconclusive = small, poorly fitted or top-dose-only effect, or another doubt; inactive = no such curve, though single readings can be large; an effect the other way counts as inactive or inconclusive;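 note: plate controls were enzyme without inhibitor for no effect and buffer without enzyme for full effect; nearly all actives have a fitted effect of over 40% in size; top concentration of the series not given in the record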
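Purified cruzain at 1.5 nM, pre-incubated 15 min with compound at room temperature in 100 mM sodium acetate pH 5.5, 5 mM DTT, 0.00005% Triton X-100. Reaction started with 2 uM Z-FR-AMC; AMC fluorescence increase over 60 s gives rate.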
2A StopGo = FMDV 2A StopGo reporter, luciferase signal | 410,000 tested, 1.2% active | human cells with a luciferase reporter of 2A StopGo recoding; control for the full effect not named in the record | Potency, µM (doses to about 57.9 µM), inactives show at the highest dose signal change, negative = less light | AID 1159524; active = well fitted falling curve with a large enough effect; inconclusive = small, poorly fitted or top-dose-only effect; inactive = no such curve, though single readings can be large or run the other way; tested in HEK293T cells; note: % is set by controls: 0 for no effect and ±100 for the full control effect; nearly all actives have a fitted effect of over 45% in size; luciferase light after 4 h
RE007 growth inh = less growth of the S. pombe RE007 Vpr strain; S. pombe RE007 Vpr strain, BacTiter-Glo ATP luminescence, 24 h; control for the full effect not named in the record; Potency, µM (highest dose often 92.2 µM), inactives show at the top dose activity change, negative = less growth; 360,000 tested, 0.21% active; AID 651644; active = well fitted falling curve with a large enough effect; inconclusive = small, poorly fitted or top-dose-only effect; inactive = no such curve, though single readings can be large or run the other way;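 note: % is set by controls: 0 for no effect and ±100 for the full control effect; nearly all actives have a fitted effect of over 50% in size; the assay follows cell death caused by Vpr and the record does not say whether a fall means rescue or toxicity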
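Fission yeast RE007 carrying one integrated HIV-1 vpr copy, seeded at OD 0.01 in PMG+AL medium with 23 nL pinned compound. Grown 24 h at 30 degrees; viability read by BacTiter-Glo luminescence after 5 min.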
* hit, by the source's call; ? = inconclusive; / = not tested or not shown; & = joins results of further samples; [ ] = another dose, or the depositor's remark. Unless noted, calls come from the whole dose curve; as a rule, active means well fitted rising curve with a large enough effect; inconclusive means small, poorly fitted or top-dose-only effect; inactive means no such curve, though single readings can be large or run the other way. Potency is the fitted concentration of half-maximal effect.

SMILES	Cruzain inh Det	NS1 inh	SARS PLpro yeast	Lassa entry inh	Marburg entry inh	Cruzain inh noDet	2A StopGo	RE007 growth inh
CCOc1ccc(C(C(=O)NC2CCCC2)N(CCOC)C(=O)CNC(=O)c2ccco2)cc1 (stereo not drawn)	/	-8%	-2%	?	-12%[46.1 µM]	/	1%	-8%
COc1ccc(NC(=O)CSc2cc(C)ccc2C)cn1	/	/	-1%	-12%[46.1 µM]	-30%[46.1 µM]	/	13%	9%
Cc1nc([N+](=O)[O-])cn1CC(=O)Nc1ccc(F)c(Cl)c1	/	18%	8%	/	/	/	2%	2%
Cc1ccc(N2CC(NC(=O)C3CCCCC3)CC2=O)cc1 (stereo not drawn)	-0.9%	/	/	14%[46.1 µM]	/	-6%	-19%	/
CCc1ccc(C2=NN(CCC(=O)NC3CCCCCC3)C(=O)CC2)cc1	/	-19%	-1%	/	/	/	-10%	6%
O=C(c1cc2ccccc2o1)N1CCN(c2ccccc2Cl)CC1	-4.1%	-97%	-35%	-30%	?	-4%	8%	3%
CCC(=O)Nc1ccc(N2CCN(S(C)(=O)=O)CC2)cc1	1.1%	7%	-11%	19%	1%	0%	-10%	0%
O=C(NCCNC(=O)c1cc(Cl)ccc1Cl)c1ccco1	/	-1%	5%	-6%[46.1 µM]	6%[46.1 µM]	/	-5%	-3%
CCC1(CC)NC(=O)N(CC(=O)OC(C)C(=O)Nc2cc([N+](=O)[O-])ccc2OC)C1=O (stereo not drawn)	/	-3%	5%	20%	10%	/	-21%	18%
COC(=O)c1cc(OC)c(OC)cc1NC(=O)c1c(-c2ccccc2Cl)noc1C	-8.2%	-13%	-10%	?	?	?	?	-5%
COc1cc(OC)c(-c2sc(Nc3ccccc3)n[n+]2-c2ccc(F)cc2)cc1OC	/	-7%	-1%	/	/	/	-5%	-1%
CCCCCCCCn1cc(C(C)=O)c(=O)[nH]c1=O	1.2%	11%	-3%	0%	1%	-5%	-26%	45%
CC1=NOC(=O)/C1=C/c1ccc(-c2ccc(Cl)cc2)o1	-11%	-100%	-39%	/	0%	?	/	/
CCOc1ccc(CNC(=O)Cn2nc(C)c3sc4ccccc4c3c2=O)cc1	-6.1%	/	/	-2%[46.1 µM]	?	-4%	-4%	/
COCC(=O)NCc1ccc2c(c1)OCO2	8.1%	3%	-1%	14%	18%	7%	-17%	1%
CN(CCc1ccccn1)C(=O)CC1C(=O)NCCN1Cc1ccccc1C(F)(F)F (stereo not drawn)	/	0%	0%	16%	14%	/	6%	2%
CC(=O)NC(CC(=O)c1ccc([N+](=O)[O-])cc1)C(Cl)(Cl)Cl (stereo not drawn)	0.0%	2%	-7%	-19%	-17%	-1%	-20%	1%
CNc1ccc(NC(C)=O)cc1[N+](=O)[O-]	-3.5%	20%	-13%	15%	14%	-5%	-16%	-5%
COc1cc(CN2CC(=O)N(c3ccc(C)c(C)c3)C2=S)cc(OC)c1OC	-1.6%	12%	-6%	-18%	?	?	?	9%
Cc1ccc(C(=O)Nc2ccncc2)cc1S(=O)(=O)N1CCOCC1	/	7%	3%	-29%	-28%	/	?	6%
CCCC(=O)N1CC(=O)Nc2ccc(F)cc2C1c1ccccc1 (stereo not drawn)	-1.1%	-3%	-2%	/	/	-3%	3%	-2%
COc1cc(C2NC(=O)CCC2[N+](=O)[O-])c(OC)cc1Br (stereo not drawn)	/	2%	0%	/	/	/	-15%	15%
COc1ccc(NC(=O)C2CCN(C(=O)c3sc4nc[nH]c(=O)c4c3C)CC2)c(OC)c1	-0.2%	/	/	-11%[46.1 µM]	/	-8%	-16%	/
COc1ccnc(Oc2ccccc2)c1C(N)=O	/	-1%	-2%	-5%	0%[46.1 µM]	/	-2%	-7%
CCOC(=O)c1scc(-c2ccccc2)c1S(=O)(=O)Nc1ccccc1OC	-6.5%	/	/	9%[46.1 µM]	/	10%	3%	/

More records:
SMILES	Cruzain inh Det	NS1 inh	SARS PLpro yeast	Lassa entry inh	Marburg entry inh	Cruzain inh noDet	2A StopGo	RE007 growth inh
CN(C)/C=C/C(=O)c1cnc(-c2cccc(Cl)c2)s1	/	9%	-1%	/	/	/	54%[activator]	-6%
Nn1c(SCc2cccc(F)c2)nnc1-c1cccnc1	/	1%	1%	0%	-15%[14.2 µM]	/	44%[activator]	5%
Clc1ccc(OCc2nc(-c3ccncc3)no2)c(Br)c1	-10%	-52%	-41%	-17%	?	-5%	3%	-1%
CC(=O)c1ccc(NC(=O)Cn2c(=O)nc(-c3ccccc3)c3cc(Cl)ccc32)cc1	-0.8%	/	/	10%[46.1 µM]	/	1%	27%	/
COc1cc(NC(=O)c2ccno2)cc(C(=O)Nc2cccc(C(F)(F)F)c2)c1	/	-3%	-5%	/	/	/	?	-5%
Nn1c(Nc2ccccc2)nc2ccccc2c1=O	-1.4%	-19%	5%	28%	9%	-1%	-25%	-23%
O=[N+]([O-])c1cccc(/C=N\N2CCN(Cc3ccccc3Cl)CC2)c1	-3.1%	-3%	22%	-18%	9%	11%	-6%	?
Cc1ccc(C)n1-c1c(C(=O)NCC(C)c2ccccc2)sc2ncccc12 (stereo not drawn)	-8.4%	/	/	2%[46.1 µM]	/	1%	0%	/
COC(=O)c1ccc(OCC(O)CN2C(=O)c3ccccc3S2(=O)=O)cc1 (stereo not drawn)	/	-12%	0%	?	23%[46.1 µM]	/	-6%	54%
O=C(COC(=O)/C=C/c1cccs1)NC(c1ccccc1)c1ccccc1	0.1%	1%	-12%	-12%	?	?	-14%	-13%
COc1ccc(/C=N/NC(=O)c2ccoc2C)cc1COc1ccc(Cl)cc1	0.1%	-88%	/	?	?	?	22µM*	-27%
COc1ccccc1C(=O)Nc1ccc(OCc2cc(=O)n3ccc(C)cc3n2)cc1	1.2%	/	/	-5%[46.1 µM]	/	-6%	-22%	/
Cc1cc(C)cc(OCC(=O)NNC(=O)c2cc(C)[nH]n2)c1	3.9%	12%	-10%	-2%	-4%	0%	0%	13%
COc1ccc(S(=O)(=O)NC(C)C(=O)NCc2cccnc2)cc1Cl (stereo not drawn)	/	0%	-3%	22%[46.1 µM]	16%[46.1 µM]	/	15%	8%
CC(C)(CNC(=O)c1cc(-c2ccc(Cl)s2)nc2ccccc12)N1CCOCC1	/	/	3%	-3%	-25%[46.1 µM]	/	-7%	46%
COc1ccc(N(C)C(=O)c2cn(CC(C)C)c(=O)c3cc(OC)c(OC)cc23)cc1	/	5%	1%	?	1%[46.1 µM]	/	-3%	2%
COc1ccc(Nc2ncnc3ccc([N+](=O)[O-])cc23)c(OC)c1	/	/	0%	-9%	?	/	-21%	-12%
C[N+]1(C)[C@@H]2CC[C@H]1CC(OC(=O)C(c1ccccc1)c1ccccc1)C2 (stereo partly drawn)	/	-1%	-3%	/	/	/	-1%	-5%
CCOC(=O)CSc1nc2cc(C(=O)NCc3ccco3)ccc2c(=O)n1C1CCCCC1	0.4%	1%	1%	-8%	2%	?	26%	5%
CS(=O)(=O)c1ccc(Cl)c(NC(=O)c2cccc(-n3cnnn3)c2)c1	/	/	-1%	-9%[46.1 µM]	-29%	/	?	-3%
CCN(CC)S(=O)(=O)c1ccc(C(=O)Nc2ccc(OCC(=O)N3CCOCC3)cc2)cc1	0.4%	-6%	-3%	-2%	-2%&-2%	27%	?	3%
CCN1CCCC1CNC(=O)c1ccc2c(c1)N(Cc1cccc(Cl)c1)C(=O)c1ccccc1S2(=O)=O (stereo not drawn)	/	8%	5%	/	/	/	12%	1%
Cc1ccc(C)n1CCN1CCN(CC(=O)Nc2cc(C(F)(F)F)ccc2Cl)CC1	-8.6%	-21%	-2%	/	-9%	?	/	/
O=C(O)c1ccc2c(=O)n3c(nc2c1)/C(=C/c1ccc(F)cc1)CC3	/	-2%	0%	9%[46.1 µM]	13%[46.1 µM]	/	19%	12%
Cc1cc(NC(=O)CSc2nnc3c(C)cc4ccccc4n23)no1	-2.1%	7%	4%	19%	12%	9%	/	1%

The list continues.
SMILES	Cruzain inh Det	NS1 inh	SARS PLpro yeast	Lassa entry inh	Marburg entry inh	Cruzain inh noDet	2A StopGo	RE007 growth inh
OCC1OC(n2cnc3cc(Cl)c(Cl)cc32)C(O)C1O (stereo not drawn)	-0.4%	/	/	/	/	-1%	16%&13%	11%
CCOC(=O)Nc1ccc2c(c1)Sc1ccccc1N2C(=O)CCN1CCOCC1	-0.9%	-7%	-6%	?	6%	17%	-17%	-5%
COc1cccc(C2CC(=O)Nc3cc4c(cc32)OCCO4)c1OC (stereo not drawn)	-3.0%	/	/	-28%[46.1 µM]	?	-6%	0%	/
COC(=O)c1sc(NC(=S)NC(=O)c2cc(OC)c(OC)c(OC)c2)nc1C	/	15%	3%	/	/	/	-20%	-4%
CCN(CC)C(=O)c1ccc(CS(=O)(=O)c2ccc(Br)cc2)cc1	/	0%	-1%	-5%	-1%	/	-22%	-1%
CC1COCC(C)N1C1=C(Cl)C(=O)c2ccccc2C1=O (stereo not drawn)	/	/	/	?	?	/	40µM*	40µM*
COc1ccc(OCC(=O)Nc2ccc(S(=O)(=O)N3CCCCCC3)cc2)cc1	-4.0%	-5%	-1%	9%	7%	-8%	0%	14%
Cc1nnc(SCCn2c(N3CCC(C)CC3)nc3c2c(=O)[nH]c(=O)n3C)s1	2.6%	14%	/	?	19%	-7%	-9%	-1%
CCCOc1ccc(C2NC(=S)NC(c3ccccc3)=C2C(=O)Nc2ccc(C)cc2)cc1OC (stereo not drawn)	-4.7%	13µM*	7%	-13%	?	-4%	-18%	4%
Cc1cc(C)c(C(=O)Cn2nc(C(=O)O)c3ccccc3c2=O)cc1C	/	3%	0%	1%	0%[46.1 µM]	/	23%	-5%
O=[N+]([O-])c1ccccc1/C=C/c1ccc2ccccc2n1	/	-21%	-11%	-14%[46.1 µM]	?	/	-24%	-26%
Cc1ccc(N2C(=O)CC(Nc3cccc4ccccc34)C2=O)cc1 (stereo not drawn)	/	-1%	-5%	5%	24%	/	37%[activator]	6%
Nc1cc(-c2cccc(F)c2)nn1S(=O)(=O)c1cccc2nsnc12	-22%	-1%	-15%	/	/	-19%	-2%	2%

High-throughput results deposited in PubChem by National Center for Advancing Translational Sciences (NCATS).
